D2 ag: Beta-Arrestin HTS for Positive Allosteric Modulators of the Human D2 Dopamine Receptor: Agonists. D(2) dopamine receptor (Homo sapiens), P14416. DiscoveRx PathHunter D2 beta-arrestin, luminescence, 90 min; 100% = 57 uM dopamine signal. activation, % (concentration not given with the values). hit rate 0.084% among 360,000; in the data active = activation above about 40%; inconclusive = about 15% to 40%; inactive = below about 15%; further: compound concentration not given in the record; the text of the record calls up to 30% inactive
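Agonist mode: compounds alone added to overnight-plated D2 PathHunter cells for 90 min at 37 C, with 57 uM final dopamine (EC100) defining full response. Beta-arrestin recruitment detected by chemiluminescent reagent, read after 1 h at ambient temperature.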
Six1-Eya2 blk: qHTS Assay for Inhibitors of the Six1/Eya2 Interaction. Homeobox protein SIX1 (Homo sapiens) + Protein phosphatase EYA2 (Homo sapiens), …. AlphaScreen GST-Six1/His-Eya2 binding, biochemical; active compounds read low; control for the full effect not named in the record. activity change, % (no concentration beside the values). hit rate 0.56% among 360,000. AID 651725, 2012; in the data active = activity change below about -65%; inconclusive = about -30% to -65%; inactive = above about -30%; further: on the % scale 0 is the no-effect control and ±100 the full control effect
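Six1/Eya2 binding was read as AlphaScreen signal after compounds were pinned into GST-Six1 plus His-tagged Eya2 (5X stock 250/500 nM) in pH 8.0 Tris/NaCl/TCEP buffer, beads added, then incubated 1 h, 37 C, dark.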
CtBP-E1A blk: qHTS Assay for Inhibitors of the CtBP/E1A Interaction | AlphaScreen GST-E1A/His-CtBP binding, 1536-well; active compounds read low; control for the full effect not named in the record | CtBP / adenovirus E1A interaction (AlphaScreen) | hit rate 0.49% among 340,000 | activity change, % (concentration not given with the values); in the data active means activity change below about -65%; inconclusive means about -30% to -65%; inactive means above about -30%; further: on the % scale 0 is the no-effect control and ±100 the full control effect
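AlphaScreen with 125 nM GST-E1A and 125 nM His-CtBP (5X stocks) in Tris pH 8.0, 300 mM NaCl, BSA, Tween 20, TCEP. Compounds preincubated 2 h at 37 deg C, then glutathione donor/nickel acceptor beads added for 1 h at 37 deg C in dark.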
D2 potentiator: Beta-Arrestin HTS for Positive Allosteric Modulators of the Human D2 Dopamine Receptor: Potentiators | hit rate 0.23% among 360,000 | potentiation, % (no concentration beside the values) | DiscoveRx D2 beta-arrestin cells, luminescence, 90 min; 100% = 57 uM dopamine signal; active = potentiation of 50% or more; inconclusive = 30% to 50%; inactive = 30% or less;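 further: compound concentration not given in the record; tested on top of an EC20 dose of dopamine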
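PathHunter D2 cells, attached overnight at 37 deg C, received compound in DMSO plus dopamine at EC20 (50 nM final) for 90 min at 37 deg C. Beta-arrestin recruitment was read as luminescence after 1 h with detection reagent at ambient temperature.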
TRPV1 potentiator: HTS Assay for Compounds that Act as Potentiators of the Vanilloid Receptor 1 | AID 540277, 2011 | Transient receptor potential cation channel subfamily V member 1 (Homo sapiens), Q8NER1 | TRPV1-expressing cells, Fluo-8 calcium influx, capsaicin EC20 potentiation; host cell line not named in the record; control for the full effect not named in the record | hit rate 0.02% among 320,000 | potentiation, % at 8.33 µM; active means potentiation above 80%; inconclusive means 30% to 80%; inactive means below 30%; further: 0% is about no effect
Target sequence (Q8NER1 whole entry, looked up): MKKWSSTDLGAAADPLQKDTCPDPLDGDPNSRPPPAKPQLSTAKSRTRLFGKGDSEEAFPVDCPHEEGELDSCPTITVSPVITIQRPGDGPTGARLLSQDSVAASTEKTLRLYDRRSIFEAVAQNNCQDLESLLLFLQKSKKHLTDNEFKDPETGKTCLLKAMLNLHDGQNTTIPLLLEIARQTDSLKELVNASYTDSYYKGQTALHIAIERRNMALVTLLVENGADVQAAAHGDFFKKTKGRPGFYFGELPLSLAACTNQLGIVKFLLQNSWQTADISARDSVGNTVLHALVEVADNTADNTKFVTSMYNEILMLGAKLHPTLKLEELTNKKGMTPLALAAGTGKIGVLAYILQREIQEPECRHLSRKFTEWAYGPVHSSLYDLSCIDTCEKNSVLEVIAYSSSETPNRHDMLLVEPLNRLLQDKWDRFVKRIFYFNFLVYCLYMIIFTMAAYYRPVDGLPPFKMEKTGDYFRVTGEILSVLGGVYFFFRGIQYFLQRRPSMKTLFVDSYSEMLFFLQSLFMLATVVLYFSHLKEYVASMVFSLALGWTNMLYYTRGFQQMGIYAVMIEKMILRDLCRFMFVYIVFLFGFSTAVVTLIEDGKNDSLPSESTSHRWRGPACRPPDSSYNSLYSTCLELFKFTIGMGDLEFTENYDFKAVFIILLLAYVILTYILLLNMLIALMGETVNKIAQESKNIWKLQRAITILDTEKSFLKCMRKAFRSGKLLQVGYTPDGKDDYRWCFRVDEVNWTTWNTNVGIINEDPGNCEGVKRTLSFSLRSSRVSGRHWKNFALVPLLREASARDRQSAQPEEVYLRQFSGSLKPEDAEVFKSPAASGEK
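TRPV1-expressing cells were cultured overnight at 35.5C and loaded with Fluo-8 calcium dye for 40 to 90 min at room temperature. After a 10 s baseline, compound was added and calcium influx was read kinetically for 3 min (ex 480/em 520 nm).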
Sfp PPTase inh: qHTS Assay for Inhibitors of Bacillus subtilis Sfp phosphopantetheinyl transferase (PPTase); Biochemical Sfp PPTase activity, qHTS; Potency, µM, without a hit: max response, negative = inhibition, actives largely listed as inhibitors; 4'-phosphopantetheinyl transferase ffp (Bacillus subtilis), Q9F4F7; hit rate 3.5% among 310,000; active means well fitted inhibition curve with a large enough effect; inconclusive means small, poorly fitted or top-dose-only effect, or another doubt; inactive means no such curve, though single readings can be large or run the other way;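 further: the enzyme is Sfp with the accession as filed and its product quenches rhodamine fluorescence; potency means the concentration at half of the fitted maximal effect; 0% = enzyme reaction without inhibitor and -100% = no enzyme wells; top concentration of the series not given in the record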
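Buffer: 50 mM Hepes-Na pH 7.6, 10 mM MgCl2, 0.01% Nonidet P-40, 0.01% BSA. Enzyme 15 nM, pre-exposed to compound 15 min; substrates then added and fluorescence change tracked over 30 min.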
PINK1 expr mod: A Quantitative High throughput Screen to Identify Chemical Modulators of PINK1 Expression. Potency, µM (top dose mostly 76.6 µM), for the others: top-dose activation (PINK1 increase), most hits filed as activators. PINK1 immunofluorescence, high-content cytometry, 24 h. hit rate 0.2% among 410,000. AID 624263, 2012; active = well fitted activation curve with a large enough effect; inconclusive = small, poorly fitted or top-dose-only effect; inactive = flat fitted curve, though single readings scatter; cell line not stated here;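 further: potency means the concentration at half of the fitted maximal effect; % of control where 0% means no effect; nearly all actives have a fitted effect of over 65% in size; a mitochondrial uncoupler was the plate control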
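A stable cell line was treated with compounds at 5 concentrations for 24 hours, with CCCP as control. PINK1 levels and mitochondrial localization were measured by immunofluorescence with mitochondrial, cell and nuclear markers after fixation, read by laser-scanning cytometry.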
Starred values were filed as active, the others as inactive; u = inconclusive; x = not tested or not shown; & = joins results of further samples; [ ] = another dose, or the depositor's remark.

SMILES	D2 ag	Six1-Eya2 blk	CtBP-E1A blk	D2 potentiator	TRPV1 potentiator	Sfp PPTase inh	PINK1 expr mod
COc1cc(C(F)(F)F)nc(-c2ccccn2)n1	-5.9	-1	-1	-4	3	2%	-1.1%
Nn1c(Cc2cccc3ccccc23)nnc1SC1CCOC1=O (centres undefined)	-0.8	6	5	u	-6	5%	-0.9%
COC(=O)c1sc(S(=O)(=O)N2CCC(C(=O)O)CC2)c(C(=O)OC)c1C	1.4	3	-5	-7	-2	23%	-3.2%
O=C(NCCc1ccc(F)cc1)c1cc(=O)c2ccccc2o1	-2.9	6	6	-6	-24	-2%	-0.7%
CC(C)Nc1nc(Cl)nc(NC2CCCCC2)n1	-1.5	2	4	-1	11	4%	6.7%
CC1(C)CC(C(=O)NCCC(c2ccccc2)c2ccco2)CCO1 (centres undefined)	-7.4	3	-17	-3	-27	u	0.8%
CNc1cnn(-c2ccc(C)cc2)c(=O)c1Sc1ccc(C)cc1	-1.6	-2	6	-3	3	14%	3.9%
COC(=O)c1[nH]c2ccc(C)cc2c1NC(=O)CN1CCN(C(=O)c2ccccc2)CC1	-1.5	-1	-1	-6	-38	5%	0.5%
C/C(=N\NC(=O)c1cc(C)nc2ccccc12)c1ccncc1	-4.4	-3	-8	-3	7	12%	5.7%
COc1ccc(CNC(=O)CN2C(=O)C(C)N(c3ccc(C)cc3)C2=O)cc1 (centres undefined)	0.3	-3	-4	-1	-8	16%	1.2%
O=C(CN(Cc1ccccc1)S(=O)(=O)c1ccc(F)cc1)NCc1ccncc1	0.0	4	3	-2	-3	11%	-1.2%
COc1ccc(OC)c(-c2c(=O)n(OCc3ccccc3Br)c3ccccc3[n+]2[O-])c1	-2.2	0	-4	-4	-7	10%	9.4%
CCOc1ccc(NC(=O)Cc2ccc(NC3=NC4CS(=O)(=O)CC4S3)cc2)cc1 (centres undefined)	-6.4	2	0	-7	-42	10%	1.1%
COc1ccc(CCNC(=O)C2CC(=O)N(c3ccc(Br)cc3)C2)cc1OC (centres undefined)	-5.2	-6	x	-3	0	-3%	1.6%
CC(O)(c1ccccc1)c1nc(-c2cccc(C(F)(F)F)c2)cs1 (centres undefined)	5.8	14	14	-2	x	x	1.2%
COc1nc(OC)nc(N2CCC(NC(=O)C(Cc3cccc(OC)c3OC)NC(C)=O)CC2)n1 (centres undefined)	8.6	-9	-24	-7	u	10%	-0.3%
O=C1Cc2ccccc2Sc2ccccc21	-6.2	6	10	-7	u	-7%	7.4%
O=C(NCCNC(=O)c1ccc(Cl)cc1Cl)c1ccc(Cl)cc1Cl	-2.8	-2	1	-2	x	x	5.0%
CC(C)c1nc2oc3c(N4CCN(C)CC4)ncnc3c2c2c1CCC2	-4.1	-7	-8	15	13	17%	0.8%
c1ccc(-c2noc(-c3ccccc3-c3ccccc3)n2)cc1	-1.7	63	45	-11	-7	u	0.4%
CCn1c(NC2CCCCC2)nc2ccccc21	-0.6	2	0	-38	-2	9%	-0.4%
COc1ccccc1N1CCN(C(=O)c2ccc(-c3ccc(Cl)cc3)o2)CC1	-1.5	-15	x	-14	-1	x	26%
CN(c1ccccc1)S(=O)(=O)c1ccc(NC(=O)COc2ccccc2)cc1	-2.6	0	0	-37	3	1%	-0.8%
COc1cccc(-n2nnc3c(=O)n(Cc4cccc(F)c4)cnc32)c1	0.1	-7	55	-6	-3	4%	u
CC(=O)c1sc(NC(=O)c2ccc(Br)o2)nc1C	2.7	12	9	-6	-7	5%	-0.5%

The list goes on.
SMILES	D2 ag	Six1-Eya2 blk	CtBP-E1A blk	D2 potentiator	TRPV1 potentiator	Sfp PPTase inh	PINK1 expr mod
Cc1ccc(C)c(C(C)NC(=O)c2ccccc2Br)c1 (centres undefined)	1.3	9	-6	7	8	-5%	3.8%
Cc1ccccc1NC(=S)N1CCN(c2ccccc2)CC1	10	-1	0	-5	5	11%	2.3%
COc1ccccc1OCCC(=O)OCCN1C(=O)c2ccccc2C1=O	1.9	3	-1	-4	3	-7%	-0.2%
C=C(C)C(=O)Nc1cccc(C2=NOC3(C2)C[C@@H](C(N)=O)N(C(=O)C2(C)CC2)C3)c1 (some centres undefined)	-1.4	3	-1	-4	-7	4%	-0.6%
COC(=O)c1ccc2nc(NC(=O)C3CCCCC3)sc2c1	-1.2	19	0	0	-8	-2%	14%
Cc1cc(Br)ccc1OCC(=O)NNC(=O)c1cnccn1	1.1	-17	x	-6	10	-10%	3.3%
COc1cc(/C=N/Nc2cc(C)nc(N)n2)ccc1O	6.1	u	-29	-4	2	-4%	3.8%
C/C(=N\NC(=O)C(O)(c1ccccc1)c1ccccc1)c1ccc(C)o1	1.2	-5	3	2	10	u	-0.6%
Cc1ccc(S(=O)(=O)N2CCN(C(=O)C3CCN(C(=O)c4ccccc4C)CC3)CC2)cc1C	4.4	11	-9	0	8	u	-0.6%
O=C(c1ccc2c(c1)OCO2)N1CCN(c2ccc(Cl)cc2)CC1	0.2	3	-2	-10	-20	-16%	-3.8%[38.3 µM]
O=C(CSc1nc(-c2ccc(F)cc2)cs1)N1CCN(C(=O)c2ccco2)CC1	-3.5	-2	2	-2	-5	-16%	-3.4%
CCCCNC(=O)C1(O)c2ccccc2NC(=O)N1c1ccc(Cl)cc1 (centres undefined)	0.4	9	6	-3	10	11%	1.5%
O=C(O)c1ccc(COc2ccc([N+](=O)[O-])cc2)o1	-4.0	4	-5	-9	-3	5%	3.0%
CN1C/C(=C/c2ccsc2)C(=O)/C(=C/c2ccsc2)C1	1.1	-5	3	-19	-13	-14%	5.9%
CC(Sc1nnc(CNC(=O)c2ccccc2F)n1C)C(=O)Nc1nccs1 (centres undefined)	-6.5	5	-13	0	9	-10%	0.6%
COc1cc(CNc2ccc3[nH]c(=O)[nH]c3c2)cc(Cl)c1OCC(=O)NC(C)(C)C	9.9	-20	u	29	3	11µM*	1.1%
COc1cccc(NC(=O)CCCNC(=O)Cn2cnc3sc(C)c(C)c3c2=O)c1	-2.5	-1	-7	-3	0	-12%	10%
Nn1cnnc1N/N=C/c1cccc(Cl)c1Cl	u	23	-8	11	-5	u	-0.9%
CCOc1ccc2c(c1)[N+](C)(C)C(C)(C)C=C2C	-0.8	2	-19	6	25	13%	0.5%
CCCN1CC(=O)N2C(c3ccccc3)c3[nH]c4ccccc4c3C[C@H]2C1=O (some centres undefined)	-0.4	-6	-9	-3	-2	-4%	4.5%
CCOCCCNC(=O)CN1C(=O)NC(Cc2c[nH]c3ccccc23)C1=O (centres undefined)	-1.7	3	2	1	2	16%	-1.4%
CCCCCC(=O)Nc1ccc(S(=O)(=O)Nc2nccnc2OC)cc1	-2.4	5	-3	-3	0	5%	2.7%
CN1CCC(=NNC(=O)C(=O)Nc2cccc(Br)c2)CC1	-3.6	-2	-18	-3	13	12%	0.5%
COc1ccc(OC)c(NC(=O)C(CCSC)NS(=O)(=O)c2cccs2)c1 (centres undefined)	1.1	-15	-4	-5	-3	6%	-2.0%&-0.2%
Cc1cc(Nc2ccc(F)cc2C)n2ncnc2n1	-4.0	5	3	-4	16	3%	-3.3%

Some of these compounds in order of heavy-atom count, descending:
SMILES	D2 ag	Six1-Eya2 blk	CtBP-E1A blk	D2 potentiator	TRPV1 potentiator	Sfp PPTase inh	PINK1 expr mod
C=C(C)C(=O)Nc1cccc(C2=NOC3(C2)C[C@@H](C(N)=O)N(C(=O)C2(C)CC2)C3)c1 (some centres undefined)	-1.4	3	-1	-4	-7	4%	-0.6%
CC(Sc1nnc(CNC(=O)c2ccccc2F)n1C)C(=O)Nc1nccs1 (centres undefined)	-6.5	5	-13	0	9	-10%	0.6%
C/C(=N\NC(=O)C(O)(c1ccccc1)c1ccccc1)c1ccc(C)o1	1.2	-5	3	2	10	u	-0.6%

Returning to the listing, starting 5 compounds before the break.
SMILES	D2 ag	Six1-Eya2 blk	CtBP-E1A blk	D2 potentiator	TRPV1 potentiator	Sfp PPTase inh	PINK1 expr mod
CCOCCCNC(=O)CN1C(=O)NC(Cc2c[nH]c3ccccc23)C1=O (centres undefined)	-1.7	3	2	1	2	16%	-1.4%
CCCCCC(=O)Nc1ccc(S(=O)(=O)Nc2nccnc2OC)cc1	-2.4	5	-3	-3	0	5%	2.7%
CN1CCC(=NNC(=O)C(=O)Nc2cccc(Br)c2)CC1	-3.6	-2	-18	-3	13	12%	0.5%
COc1ccc(OC)c(NC(=O)C(CCSC)NS(=O)(=O)c2cccs2)c1 (centres undefined)	1.1	-15	-4	-5	-3	6%	-2.0%&-0.2%
Cc1cc(Nc2ccc(F)cc2C)n2ncnc2n1	-4.0	5	3	-4	16	3%	-3.3%
CN(C)Cc1c(C(=O)Nc2ccccc2)[nH]c2ccccc12	-1.0	-1	1	-28	u	x	0.0%
COc1ccc(NC(=O)CSc2nnc(C3CC3)n2C)cc1S(=O)(=O)N1CCCCC1	6.5	3	0	-2	-1	x	0.5%
O=c1cc(CO)oc(CN2CCCC2)c1O	-2.0	-2	7	0	25	-12%	x
CCN1CCn2c3c(c4cc(C)ccc42)CCCC31 (centres undefined)	2.0	-17	-26	-3	-13	-19%	5.0%
CCCCNC(=O)CSc1nnc(-c2ccc(S(=O)(=O)N3CCCC3)cc2)n1C	-1.1	6	2	1	0	24%	-6.4%[38.3 µM]
CN(c1ccccc1C(=O)NCc1ccco1)S(C)(=O)=O	-0.5	0	-2	9	x	u	-0.1%
CCCCNC(=O)N1CCCC(C(=O)c2cc(C)c(OC)c(C)c2)C1 (centres undefined)	0.6	3	10	-19	10	21%	3.5%

Reprinted at random: 2 entries already listed, in no set order.
SMILES	D2 ag	Six1-Eya2 blk	CtBP-E1A blk	D2 potentiator	TRPV1 potentiator	Sfp PPTase inh	PINK1 expr mod
CCCCNC(=O)N1CCCC(C(=O)c2cc(C)c(OC)c(C)c2)C1 (centres undefined)	0.6	3	10	-19	10	21%	3.5%
CCCCNC(=O)CSc1nnc(-c2ccc(S(=O)(=O)N3CCCC3)cc2)n1C	-1.1	6	2	1	0	24%	-6.4%[38.3 µM]

No enrichment for hits, and some 3.7% of all compounds hit somewhere here.
